# Beta2AR agonist: human beta-2 adrenergic receptor agonism by FAP; 0.43% of 340,000 active; Am2.2-beta2AR cells, FAP receptor internalization, flow cytometry; reference of the scale not given here; response, % (no concentration beside the values);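 active = response above a set limit, near 3 SD of response in nonfluorescent compounds, cut at about 42% in these data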;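 note: stock transfer was 100 nL into about 11 µL; a reference agonist was the positive control; negative values mostly stem from fluorescent compounds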
# Target sequence (P07550 whole entry, looked up): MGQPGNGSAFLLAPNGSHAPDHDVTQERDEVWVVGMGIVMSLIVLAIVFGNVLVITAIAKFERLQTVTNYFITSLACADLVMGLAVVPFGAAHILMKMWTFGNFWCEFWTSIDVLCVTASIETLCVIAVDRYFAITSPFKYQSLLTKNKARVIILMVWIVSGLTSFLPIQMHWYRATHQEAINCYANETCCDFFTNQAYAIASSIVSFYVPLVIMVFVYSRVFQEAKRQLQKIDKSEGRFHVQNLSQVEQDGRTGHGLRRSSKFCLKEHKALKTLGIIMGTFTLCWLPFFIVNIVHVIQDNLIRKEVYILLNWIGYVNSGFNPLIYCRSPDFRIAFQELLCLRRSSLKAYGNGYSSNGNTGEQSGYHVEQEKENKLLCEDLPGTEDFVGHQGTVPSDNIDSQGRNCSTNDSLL
# Calb FLC: affects C. albicans growth with fluconazole; 0.57% of 300,000 active; C. albicans CaCi-2 (fluconazole-resistant clinical isolate) + fluconazole, Alamar Blue growth, 48 h; growth inhibition, % (concentration not given with the values);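 active = most replicates above 75%; inconclusive = exactly half above 75%; inactive = most below 75%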;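 note: all wells also contain fluconazole at 8 µg/ml as a sub-toxic cotreatment; 0% = median of DMSO wells and 100% = median of geldanamycin control wells; wells of about 8 µL received 7.5 nL stock; the first replicate is given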
# T cruzi repl: blocks replication of Trypanosoma cruzi; inhibition, % (concentration not given with the values); T. cruzi beta-gal in NIH3T3, luminescence, 90 h; 1.4% of 300,000 active;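 active = mean inhibition across valid replicates above about 55%, limit read from the data; inconclusive = mean below that limit but half or more replicates reach it; inactive = mean below it, under half of replicates reach it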;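 note: signal also drops with host cell toxicity which is not excluded here; 0% = plate median of DMSO wells and 100% = zero luminescence signal; higher percent means less beta-gal luminescence so fewer parasites; stock transfer was 50 nL into about 50 µL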
# Beta cell apopt: beta cell apoptosis inhibition. INS-1E cytokine-induced death, ATP luminescence, 48 h; percent of positive-control rescue, neutral wells zero. protection from apoptosis, % (concentration not given with the values). 0.8% of 300,000 active. AID 435005;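 active = all replicates at 75% or more, or half of them and the mean; inconclusive = half reach 75% but not the mean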;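 note: 0% = cytokine-treated negative control wells and 100% = positive control rescue; higher means more ATP so stronger rescue from cytokine killing; wells of about 40 µL received 100 nL stock; the first replicate is given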
# UCH37 inh: human UCH37 deubiquitinating enzyme inhibition. Q9Y5K5. purified proteasome/UCH37, Ub-AMC cleavage fluorescence. 0.33% of 330,000 active. inhibition, % (no concentration beside the values);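 active = mean of two replicates above 20%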;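 note: 0% = compound-free wells with enzyme and 100% = wells lacking proteasome; stock transfer was 100 nL into about 20 µL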
# Target sequence (Q9Y5K5 whole entry, looked up): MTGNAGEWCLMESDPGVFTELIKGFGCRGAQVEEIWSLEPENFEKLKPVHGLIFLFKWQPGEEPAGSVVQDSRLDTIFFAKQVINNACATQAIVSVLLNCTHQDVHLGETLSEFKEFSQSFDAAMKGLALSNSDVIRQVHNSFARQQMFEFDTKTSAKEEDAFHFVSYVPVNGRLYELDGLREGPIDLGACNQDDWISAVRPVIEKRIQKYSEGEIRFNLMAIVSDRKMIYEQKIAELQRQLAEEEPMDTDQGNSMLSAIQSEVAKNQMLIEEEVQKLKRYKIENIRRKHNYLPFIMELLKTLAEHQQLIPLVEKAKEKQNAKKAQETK
#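 Test system – human UCH37 enzyme supplied as purified proteasome complex · Incubation – 30 min preincubation with enzyme, 25 min cleavage at room temperature · Detection – AMC fluorescence from Ub-AMC cleavage, excitation 355 nm, emission 460 nm · Benchmarks – no-proteasome wells (full inhibition) and compound-free wells (no inhibition)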
# A1 inh: inhibitors of the anti-apoptotic protein A1, read as caspase activation; MEF A1-2A-BIM cells, Caspase-Glo 3/7 luminescence, 3 h; percent of clofoctol response, vehicle zero; caspase activation, % (test concentration not listed); 0.066% of 330,000 active;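 active = over half of replicate activation scores above 10%, or exactly half above 10 with the replicate mean above 10; inconclusive = replicate mean below 10 yet half the replicates above 10; inactive = over half of replicates below 10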;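 note: wells of about 30 µL received 50 nL stock; many hits fall short of the cut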
# LANA-H2B inh: blocks KSHV LANA binding to histone H2A/H2B | Q9QR71 | cell-free LANA-H2A/H2B peptide, fluorescence polarization | inhibition, % (test concentration not listed) | 0.6% of 320,000 active | AID 2629; in the data active = inhibition mostly above about 10%, no sharp cut-off; inactive = mostly below about 6.7%;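 note: stock transfer was 7.5 nL into about 10 µL; 0% = median of vehicle wells and 100% = median of positive control wells; one replicate is shown; the record names a cut of 25% in any replicate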
# RanGTP-Imp inh: disruptors of Ran-importin-beta complex formation – biochemical, FRET, CFP-Ran, YFP-importin-beta, homogeneous, primary screen; cell-free CFP-Ran/YFP-importin-beta FRET ratio; 1.1% of 300,000 active; inhibition, % (test concentration not listed);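 active = most replicates above 15%; inconclusive = exactly half above 15%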;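 note: 0% = DMSO wells and 100% = Ran loaded with GDP instead of GTP; wells of about 40 µL received 100 nL stock; the first replicate is given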
# Numbers without * were called inactive; u = inconclusive; x = not tested or not shown.
SMILES,Beta2AR agonist,Calb FLC,T cruzi repl,Beta cell apopt,UCH37 inh,A1 inh,LANA-H2B inh,RanGTP-Imp inh
C=CCSc1nnc(-c2cc(C(C)(C)C)nn2Cc2ccc(F)cc2)n1C,5,1,12,-2,1.1,-0.8,2.7,0.3
O=c1[nH]c(SCc2ccccc2)nc2ccsc12,-2,15,18,x,3.9,0.7,6.8,2.0
CC(C)CC(NC(=O)C1CCC(C)CC1)C(=O)Nc1ccccn1 (stereo unspecified),-1,-19,15,-5,1.7,-0.7,0.7,1.5
CN(C)c1ccc(CN2CCCCCC2)cc1,-3,5,33,-4,5.0,0.1,-2.0,2.9
CC1(C)Cc2c(sc3nc(SCC(=O)O)nc(N)c23)CO1,-8,0,-1,x,-3.2,0.1,-3.1,0.6
CCC[C@@H](CN[C@@H](CNC)[C@H](C)CC)NCC1CCC(C(C)(C)C)CC1 (stereo partly specified),27,-31,44,62,3.7,0.2,-2.5,-1.0
CCOc1ccc(CCNC(=O)Cn2c(=O)c3cccn3c3cccnc32)cc1,7,1,-6,-5,-19,1.1,4.6,7.2
Cc1ccc(/C([O-])=C(/C(=S)NCc2ccco2)[n+]2ccccc2)cc1,x,2,-6,5,x,-0.3,-1.0,-2.2
Cc1ccc(CNC(=O)CCC2CCCN(Cc3cc4ccccc4o3)C2)o1 (stereo unspecified),-11,-5,56*,2,4.7,0.8,1.4,0.5
COc1cc(S(=O)(=O)NC2CCCC2)ccc1F,-1,-6,-12,-6,-1.4,0.3,-0.3,-3.1
Cc1ccccc1NC(=O)OCc1ccccc1,-6,2,-16,x,-0.2,-4.4,0.8,1.8
CC(C)(C)c1ccc(C(=O)NCc2ccc(Cl)cc2)cc1,2,-6,24,-8,2.3,0.8,-0.2,-5.8
Cc1ccc(NC(=O)N2CCCC(C(=O)O)C2)cc1 (stereo unspecified),-2,-11,-11,-5,-1.5,-0.3,5.7,2.9
COCCN1Cc2cccc(C(=O)Nc3ccc(C)cc3)c2C1=O,-7,-1,11,-5,7.1,-0.4,-0.8,-3.0
CC(=O)Nc1ccc(NC(=O)CSc2nnc(-c3cccnc3)o2)cc1,x,x,-3,-1,5.6,-0.7,3.2,u
COc1cccc(NC(=O)Cn2cnc3c(oc4nc5c(cc43)CCCC5)c2=O)c1,-10,-4,-13,4,-0.4,-1.3,-4.2,0.5
COC(=O)C(C)NC(=O)c1ccc(C(C)(C)C)cc1 (stereo unspecified),3,0,-14,-1,2.4,0.1,5.9,-0.4
O=C(CN1CCOc2ccccc21)NCc1ccccc1,2,-2,-3,-1,1.3,1.3,-1.9,-2.9
Cc1cc2ncn(CCOc3ccccc3C#N)c2cc1C,1,-6,-8,-7,3.9,-0.1,-7.1,-0.6
Cc1c(NC(=O)CS(=O)(=O)c2ccccc2)c(=O)n(-c2ccccc2)n1C,0,-16,-9,-3,2.8,-0.3,-6.6,-8.1
COc1cccc(C(=O)N(CN2CCCC2=O)c2cccc(Cl)c2)c1,3,16,6,0,5.6,0.0,-7.4,2.5
COC(=O)Nc1ccc2ncn(C)c(=O)c2c1,-3,-5,-12,-4,-3.8,0.0,-0.7,-1.9
CCCCn1c(=O)[nH]c(=O)c2c1nc(Cn1ncc(Cl)c(Cl)c1=O)n2CCC,41,-2,23,4,x,6.8*,-9.0,-0.8
CC1=Nn2c(nnc2-c2ccccc2Cl)SC1,1,11,-5,-2,1.3,1.2,0.6,1.2
CCOc1ccccc1CNC(=O)CNC(=O)c1cccs1,-2,-12,-11,1,4.3,-0.2,3.6,2.9
Cc1ccc(S(=O)(=O)N2CCN(C(=O)COC(=O)CNC(=O)c3ccc(Cl)cc3Cl)CC2)cc1,5,-10,-7,3,3.7,-0.3,1.4,-1.9
CS(=O)(=O)N(Cc1ccccc1)c1ccc(C(=O)Nc2ccccc2C(=O)O)cc1,-1,-4,-12,-4,0.4,0.7,-2.7,-0.4
Cn1c(O)c(N=NC(=N)N)c2ccccc21,3,-4,-1,-2,13,1.0,3.9,u
Cc1cc(=O)oc2cc(NC(=O)COc3ccccc3[N+](=O)[O-])ccc12,4,x,x,-3,-21,1.0,0.3,x
Cc1onc(-c2c(Cl)cccc2Cl)c1C(=O)Nc1c(C)n(C)n(-c2ccccc2)c1=O,0,-3,-3,x,x,x,x,5.5
COc1ccc(CCNC(=O)C23CN(Cc4ccccc4)CC2C(c2cccc([N+](=O)[O-])c2)=NO3)cc1 (stereo unspecified),5,13,-8,1,5.5,-1.0,1.3,1.2
CCOC(=O)C1(Cc2cccc(OC)c2)CCN(C2CCOCC2)CC1,2,-13,-9,-6,2.3,0.3,0.4,5.9
COCCn1c(N/N=C(C)/C=C/c2ccccc2)nc2c1c(=O)[nH]c(=O)n2C,x,5,12,-8,x,0.7,3.9,-0.1
COc1cc(C(=O)N2CCCc3ccccc32)cc(OC)c1OC,-17,3,4,-4,0.8,0.8,3.4,2.2
Cn1c(SCCOc2cccc(Cl)c2)nnc1-c1ccncc1,8,6,-12,-3,4.4,1.3,4.6,6.5
COc1ccc(CNC(=O)CN(C(=O)c2csnn2)c2ccc(F)cc2)cc1,-11,8,22,-2,9.8,-0.4,-2.8,1.9
C#CCNC(=O)C1=C[C@H](c2coc3ccccc3c2=O)C[C@H](OCc2ccc(CO)cc2)O1,-8,11,7,5,0.8,-0.8,-4.0,-3.0
CCOC(=O)C1(CC2CCCCO2)CCN(Cc2cccnc2)CC1 (stereo unspecified),-2,u,-15,5,0.5,0.1,7.1,3.8
CCOC(=O)c1c(NC(=O)CSc2nc3nc(C)cc(C)n3n2)sc(CC)c1C,0,5,21,6,3.3,1.6,-3.7,x
O=C(CNC(=O)c1sc2ccccc2c1Cl)Nc1ccccc1F,-2,9,6,-5,4.1,-0.1,-4.8,3.7
COc1cc2c(C#N)c(N3CCc4ccccc4C3)nc(N)c2c(N)n1,x,27,30,1,-202,0.7,0.8,0.9
NS(=O)(=O)c1ccc(NC(=O)NC2CCCCC2)cc1,4,-13,-5,-3,x,-2.8,-1.8,5.5
COc1ccc(/C=N\NC(=O)C2CCCC2)cc1Br,-1,3,6,1,x,2.3,-4.0,1.7
Oc1ccc(C2C[C@H]3CC[C@@H]2C3)cc1O (stereo partly specified),3,16,14,-4,1.7,0.3,5.9,0.5
CCOc1ccc(C2C(C(=O)c3cccs3)=C(O)C(=O)N2CCN2CCOCC2)cc1 (stereo unspecified),-2,-14,-7,2,12,-0.7,-0.1,1.7
O=C(C1Cc2ccccc2CN1S(=O)(=O)c1cccs1)N1CCCCC1 (stereo unspecified),-1,u,-10,-2,4.6,0.0,5.7,2.0
COc1ccc(CNC(=O)C2=CC(c3ccc(OC)cc3)=NS(=O)(=O)N2C)cc1,8,-19,-4,0,4.4,-0.6,0.1,2.1
O=C1COc2ccc(C(=O)CSc3nnc(-c4cccs4)n3Cc3ccccc3)cc2N1,7,1,-3,3,-0.3,2.7,9.1,-1.2

# A different layout for some results above:
Cc1c(NC(=O)CS(=O)(=O)c2ccccc2)c(=O)n(-c2ccccc2)n1C
  Beta2AR agonist = 0 | Calb FLC = -16 | T cruzi repl = -9 | Beta cell apopt = -3 | UCH37 inh = 2.8 | A1 inh = -0.3 | LANA-H2B inh = -6.6 | RanGTP-Imp inh = -8.1

COc1cccc(C(=O)N(CN2CCCC2=O)c2cccc(Cl)c2)c1
  Beta2AR agonist = 3 | Calb FLC = 16 | T cruzi repl = 6 | Beta cell apopt = 0 | UCH37 inh = 5.6 | A1 inh = 0.0 | LANA-H2B inh = -7.4 | RanGTP-Imp inh = 2.5

COC(=O)Nc1ccc2ncn(C)c(=O)c2c1
  Beta2AR agonist = -3 | Calb FLC = -5 | T cruzi repl = -12 | Beta cell apopt = -4 | UCH37 inh = -3.8 | A1 inh = 0.0 | LANA-H2B inh = -0.7 | RanGTP-Imp inh = -1.9

CCCCn1c(=O)[nH]c(=O)c2c1nc(Cn1ncc(Cl)c(Cl)c1=O)n2CCC
  Beta2AR agonist = 41 | Calb FLC = -2 | T cruzi repl = 23 | Beta cell apopt = 4 | UCH37 inh = x | A1 inh = 6.8* | LANA-H2B inh = -9.0 | RanGTP-Imp inh = -0.8

# Additional compounds follow.
SMILES,Beta2AR agonist,Calb FLC,T cruzi repl,Beta cell apopt,UCH37 inh,A1 inh,LANA-H2B inh,RanGTP-Imp inh
COC(=O)c1cc2c(C)c(C)c3ccccn3c-2c1C(=O)OC,10,3,-1,4,8.4,0.3,9.8,12
COc1ccc(/C=C2\SC(=O)N(CC(=O)NNC(=O)c3ccccc3O)C2=O)cc1OC,5,105*,-3,-6,x,0.2,1.5,u
O=C(c1ccccc1)c1c[nH]c(C(=O)NNc2ccccc2)c1,-1,99*,57*,12,19,0.0,-2.1,7.9
O=C(O)C(CCCCN1C(=O)C2C3C=CC(C3)C2C1=O)N1C(=O)C2C3C=CC(C3)C2C1=O (stereo unspecified),2,-13,-13,-1,0.9,0.2,-0.5,-0.5
COc1ccc(C(=O)NC2CCN(CC(=O)Nc3cccc(C)c3)CC2)cc1OC,-5,-13,-2,-6,1.1,-1.2,2.8,-2.1
COc1ccc(-c2cc(-c3n[nH]c(=S)n3-c3ccccc3OC)[nH]n2)cc1,-6,2,-9,1,1.8,-0.2,-3.2,-3.1
O=C(CCc1ccc(S(=O)(=O)NC2CCCCC2)cc1)NCc1cccnc1,1,-27,-15,x,2.5,-0.3,-0.8,-0.4
Cc1ccc(CN(Cc2cccnc2)C(=S)Nc2cc(Cl)ccc2C)cc1,6,26,77*,15,2.3,0.2,-3.0,-4.7
COCCCNc1ncnc2c1sc1nc(-c3ccco3)c3c(c12)CC(C)(C)OC3,99*,2,-12,-5,-92,0.8,-2.9,2.6

# Whole records, quoted from the list. Order of screens: Beta2AR agonist | Calb FLC | T cruzi repl | Beta cell apopt | UCH37 inh | A1 inh | LANA-H2B inh | RanGTP-Imp inh
# `COc1ccc(C(=O)NC2CCN(CC(=O)Nc3cccc(C)c3)CC2)cc1OC` across the screens: -5 | -13 | -2 | -6 | 1.1 | -1.2 | 2.8 | -2.1
# `COc1ccc(-c2cc(-c3n[nH]c(=S)n3-c3ccccc3OC)[nH]n2)cc1` across the screens: -6 | 2 | -9 | 1 | 1.8 | -0.2 | -3.2 | -3.1
# `COc1ccc(/C=C2\SC(=O)N(CC(=O)NNC(=O)c3ccccc3O)C2=O)cc1OC` across the screens: 5 | 105* | -3 | -6 | x | 0.2 | 1.5 | u
# `O=C(c1ccccc1)c1c[nH]c(C(=O)NNc2ccccc2)c1` across the screens: -1 | 99* | 57* | 12 | 19 | 0.0 | -2.1 | 7.9

# Screening results (PubChem)

# Rows are unselected; overall some 4.3% were active at least once.
